Screening data from PubChem BioAssay.
MgcRacGAP = inhibition of MgcRacGAP-stimulated Rac1 GTP hydrolysis – biochemical, inorganic phosphate detection, orthogonal assay, confirmation (AID 652142) | MgcRacGAP/Rac1F28L GTP hydrolysis, Biomol green phosphate; active compounds read high; test concentration not given here; none was called active though about 1 in 100 pass the limit | inhibition, % | 2,400 tested, under 10 active;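 active = inhibition over three standard deviations or about 65%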;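 note: full inhibition control lacks the GAP enzyme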
The depositor's hits bear a star. Not all compounds are listed, so the mix of outcomes need not match the whole.

structure	MgcRacGAP
O=C(O)c1cccc(N2C(=O)/C(=C/c3ccc(SCc4ccc(Cl)cc4)o3)SC2=S)c1	46
CSC1=NN(c2ccccc2)CN(c2ccccc2)N1C	24
CCOc1cc(/C=C(\C#N)c2[nH]nc(N)c2C#N)ccc1O	30
Nc1ccc(Nc2nc(-c3ccncc3)cs2)cc1	32
Nc1ccc(N2CCN(c3cccc(Cl)c3)CC2)cc1	24
CCOc1ccc2nc(NC(=O)CS(=O)(=O)c3ccccc3)sc2c1	27
COc1cc2nc(=S)n3[nH]c(CCn4nc(C)cc4C)nc3c2cc1OC	35
CN1CCN(/N=C/c2nc(-c3ccc(Cl)cc3)n3ccccc23)CC1	29
CC1NC(C)c2c(ccc3ccccc23)O1 (stereo not drawn)	16
COc1cc(C(=S)NC2CCCCC2)ccc1O	34
CCn1nc(C)c(Br)c1C(=O)Sc1ccccc1Cl	44
CC(C)(C)NC(=S)Nc1ccc(Nc2ccccc2)cc1	19
Cc1ccc(NCc2ccco2)cc1C	15
c1nc(SSc2ncnc3nc[nH]c23)c2[nH]cnc2n1	52
CN1CCCCCC1=Nc1ccccc1C#N	16
O=[N+]([O-])c1cc(Br)c(O)c(C=Nc2ccc(N3CCOCC3)cc2)c1	35
COc1cc(CN2CCN(C(=O)c3cccc4ccccc34)CC2)cc(OC)c1OC	14
O=C1c2ccccc2C(=O)C1c1ccc(O)cc1	13
COC1=C/C(=C/c2c(N)n3nc(CC(=O)N4CCOCC4)sc3nc2=O)C=CC1=O	2
Cc1ccc(S(=O)(=O)/N=C2\C=C(Nc3ccc(O)cc3)C(=O)c3ccccc32)cc1	15
CCn1cnc2cc(NCc3ccc(OC)cc3)ccc21	19
C/C=C(\C)CN1CCN(c2ccc(C)cc2)CC1	13
CCn1c(=S)[nH]c2sc3c(c2c1=O)CCCC3	11
COc1ccc2nc3cc(Cl)ccc3c(Nc3ccc(O)c(CN4CCN(C)CC4)c3)c2c1	14
CC1=NOC(=O)/C1=C\c1ccc(-c2ccc(Cl)c(C(=O)O)c2)o1	38
Cc1sc2nc(CN3CCOCC3)nc(N3CCOCC3)c2c1C	21
Cc1ccccc1C(OCC(O)CN1CCN(CCO)CC1)c1ccccc1 (stereo not drawn)	29
CCN(CC)c1ccc(NC(=O)COc2ccc(-n3cnnn3)cc2)cc1	7
COc1ccc(/C=N/Nc2cc(C)nc3ccc(OC)cc23)c(OC)c1	68
Cc1ccccc1C(=O)Nc1ccc(N2CCCC2)cc1	30
COc1cc(/C=C/CN2CCN(Cc3ccc(C)o3)C(CCO)C2)ccc1O (stereo not drawn)	5
CCOCCCNc1nc(=S)[nH]c2cc(OC)c(OC)cc12	6
O=C1C=C(Nc2ccc(O)cc2)C(=O)c2ccccc21	25
CN(C)c1ccc(Cc2ccc(N(C)C)cc2)cc1	24
CC(=O)N1CCN(c2ccc(NCc3cccc(C)c3)cc2)CC1	20
Cc1nc2ccc(C(=O)Nc3ccc(N(C)C)cc3)cc2s1	26
O=C(CNC(=O)c1cccs1)N/N=C/c1ccc(O)cc1O	16
COc1ccccc1NC(=O)NNC(=O)c1ccc2ccccc2c1O	19
N#CC1=C(S)N(c2ccccc2)C(c2cccs2)NC1=O (stereo not drawn)	47
Cc1nonc1C(=O)N/N=C/c1ccc(O)cc1O	0
CN1C(=O)/C(=C/c2ccc(C(=O)Nc3ccc(O)cc3C(=O)O)cc2)SC1=S	33
CC(=O)Nc1ccc(S(=O)(=O)Nc2nc3ccccc3nc2Nc2ccc(C(=O)O)c(O)c2)cc1	21
c1ccc(CCNCCCOc2cccc3ccccc23)cc1	11
Cn1c(N/N=C/c2c[nH]c3ccccc23)nc2ccccc21	30
C/C(=N\NC(=O)c1ccc(O)cc1)c1ccc2c(c1)Nc1ccccc1S2	28
COc1cc(C)c(NC(c2ccccc2)c2ccccc2)cc1OC	25
O=c1[nH]c(/C=C\c2ccc(O)cc2)nc(O)c1[N+](=O)[O-]	24
COc1cccc(-c2ncc3ccccn23)c1	20
Cc1ccc(COC(=O)Cc2coc3cc(O)ccc23)cc1	25
CCOc1cc(/C=C(\C#N)C(=O)NCc2cccnc2)ccc1O	9

The results go on.
structure	MgcRacGAP
c1ccc2c(c1)c1c(c3ccccc32)CN2CCCC2C1 (stereo not drawn)	21
CCOc1ccc(N(CCCCO)C(=S)NC(=O)c2ccc(C)c(Br)c2)cc1	14
COc1cc(/C=C(/NC(=O)c2ccccc2)C(=O)Nc2ccc(O)cc2)c([N+](=O)[O-])cc1OC	24
COc1ccc(N=Nc2cc(OC)c(N)cc2OC)cc1	34
Cc1cc(C)cc(NC(=O)C(NCCN2CCOCC2)c2ccccc2)c1 (stereo not drawn)	17
CCN(CC)c1ccc(/C=N/N2CCOCC2)cc1	34
CCOc1cc(/C=N/NC(=O)NN(C)c2ncc(C(F)(F)F)cc2Cl)ccc1O	21
CCOc1cc(N2CCOCC2)c(OCC)cc1NCC(=O)N1CCN(Cc2ccccc2)CC1	6
O=C(CSc1ccc2ccccc2c1)N1CCN(c2ccc(O)cc2)CC1	26
CNC(=S)Nc1ccc(Nc2ccccc2)cc1	21
Cc1ccc(C2=NOC(=O)/C2=C\c2ccc(C)o2)cc1	18
COC(=O)CCNc1ccc2c(c1)OCCO2	-6
O=C1SC(c2ccccc2)=C/C1=C\N1CCCCC1	28
COc1ccc(NCc2ccc([N+](=O)[O-])s2)c(OC)c1	28
O=C(NCc1ccccc1)/C(=C\c1ccc(O)cc1)NC(=O)c1ccco1	24
COc1cc(/C=N/Nc2nc(C)cc(C)n2)ccc1O	10
CCOc1cc(CNc2ccc3c(c2)OCCO3)cc(Br)c1OCC(N)=O	21
COc1ccc(N2CCN(c3ncccc3C#N)CC2)cc1	22
CN(C)c1ccc(/C=N/N2CCN(Cc3ccccc3Cl)CC2)cc1	13
COc1ccc(S(=O)(=O)/N=C2\C=C(Nc3ccc(O)cc3)C(=O)c3ccccc32)cc1	14

Shown field by field: four of the compounds above
O=C1SC(c2ccccc2)=C/C1=C\N1CCCCC1
  MgcRacGAP: 28
COc1ccc(S(=O)(=O)/N=C2\C=C(Nc3ccc(O)cc3)C(=O)c3ccccc32)cc1
  MgcRacGAP: 14
Cc1ccc(C2=NOC(=O)/C2=C\c2ccc(C)o2)cc1
  MgcRacGAP: 18
COC(=O)CCNc1ccc2c(c1)OCCO2
  MgcRacGAP: -6

The list continues.
structure	MgcRacGAP
CC(=O)N1CCN(c2ccc(NCc3cccs3)cc2)CC1	29
CCn1c2ccccc2c2cc(NC(=O)CNC)ccc21	24
CC(=O)Nc1ccc(OC(=O)Cc2ccc(Cl)cc2)cc1	2
COc1cccc(CNc2ccc(N3CCC(C)CC3)cc2)c1OC	29
COc1cc(/C=N/NC(=O)CCc2ccccc2)ccc1O	22
O=c1c2ccccc2sn1-c1cccc(Cl)c1	74
COc1cccc(CNc2ccc3[nH]c(=O)[nH]c3c2)c1OCc1ccccc1Cl	0
Oc1ccc(/C=N/n2c(-c3ccco3)csc2=Nc2cccnc2)c(O)c1	24
CCN1CCN(CCOc2ccc(Br)cc2C)CC1	23
O=C(CNS(=O)(=O)c1ccccc1)N/N=C/c1ccc(O)cc1	28
O=C(CNCc1ccco1)Nc1ccc(Oc2ccccc2)cc1	26
CCn1c(C)nc2cc(C(=O)N/N=C/c3ccc(O)cc3)ccc21	23
O=C1CCN(c2ccccc2)N1	14
CCOc1ccccc1/C=c1\sc2ncnn2c1=O	33
CCN(CC)CCCNCC(=O)Nc1ccc2c(c1)CCC2	31
CCc1nc(Nc2ccc(O)cc2)c2oc3ccccc3c2n1	28
COc1ccc(C(=O)Nc2ccc(N3CCCCCC3)cc2)cc1S(=O)(=O)N1CCOCC1	10
CCOC(=O)c1oc2cc(O)cc(C)c2c1C	19
CC(C)c1ccc(NC(=O)CNCC(c2ccccc2)N(C)C)cc1 (stereo not drawn)	20
O=C(N/N=C/c1ccc(O)cc1)NC12CC3CC(CC(C3)C1)C2	29

Shown with values ahead of the structure: 6 of the compounds above.
MgcRacGAP,mol
14,O=C1CCN(c2ccccc2)N1
33,CCOc1ccccc1/C=c1\sc2ncnn2c1=O
31,CCN(CC)CCCNCC(=O)Nc1ccc2c(c1)CCC2
28,CCc1nc(Nc2ccc(O)cc2)c2oc3ccccc3c2n1
10,COc1ccc(C(=O)Nc2ccc(N3CCCCCC3)cc2)cc1S(=O)(=O)N1CCOCC1
19,CCOC(=O)c1oc2cc(O)cc(C)c2c1C

(listing goes on)
SMILES | MgcRacGAP
Cc1cc(C)c(S(=O)(=O)Nc2ccc(N(C)C)cc2)c(C)c1-n1cnnn1 | 31
CN1CCN(Cc2coc3c(Cl)cc(Cl)cc3c2=O)CC1 | 26
CCOc1cc(C=NNC(=O)c2cccc(S(=O)(=O)N3CCCC3)c2)ccc1O | 23
CCN(CC)CCCC(C)NC(=O)c1c(NC(=O)c2ccccc2)sc2c1CCCC2 (stereo not drawn) | 25
CCOc1cc(/C=N/NC(=O)c2ccccc2OCc2ccc(F)cc2)ccc1O | 17
COc1cc(/C=N/N=C2/C(=O)Nc3ccccc32)cc(OC)c1O | 29
Cc1cc(C)c(S(=O)(=O)Nc2ccc(O)cc2)c(C)c1 | 22
N#CC1(Nc2ccc3c4c(cccc24)CC3)CCCCC1 | 27
Cc1ccc(S(=O)(=O)N2CCCCC2)cc1NC(=O)CNCc1ccco1 | 21
CC(C)C1=Nc2cccc3cccc(c23)N1 | 22
COc1cc(/C=C/c2ccc3cccc(O)c3n2)ccc1O | 7
CN1CCCN(Cc2ccccc2C(F)(F)F)CC1 | -4
Nc1ccc2c(c1)C(=O)c1cc(N)c(Cl)cc1-2 | 29
COc1ccc(CN2CCCN(C)CC2)c(OC)c1C | 35
COCCCNC(=S)N1CCN(Cc2ccc3c(c2)OCO3)CC1 | 8
CC(C)n1cc(/C=N/Nc2ccc(Cl)c(C(=O)O)c2)c2ccccc21 | 22
CC1(C)CC(=O)C(C(C2=C(O)CC(C)(C)CC2=O)c2cccs2)C(=O)C1 (stereo not drawn) | 38
O=C(CNCc1ccco1)Nc1ccc(N2CCCCCC2)cc1 | 16
CCN(CC)CCOCCOc1ccc(Cl)c2ccccc12 | 24
COc1ccc(NC2CCCN(C(=O)c3ccc4[nH]c(C)c(C)c4c3)C2)cc1 (stereo not drawn) | 18
C=CCN(CC=C)C(=O)C1CCN(Cc2ccc(OCc3ccccc3)cc2)CC1 | 31
CCN1CCN(CCOc2cccc(Cl)c2Cl)CC1 | 13
Oc1c(Cl)cc(Cl)c2c1NCCC2 | 24
Cc1cc(C)c(OCCCCN2CCC(C)CC2)c(Br)c1 | 28
CCN=C1S/C(=C\c2ccc(O)c(OCC)c2)C(=O)N1CC | 31
C[C@H]1CCC/C=C/[C@@H]2C[C@H](O)C[C@H]2[C@H](O)[C@H](S(=O)c2ccc(O)cc2)CC(=O)O1 (stereo partly drawn) | 47
O=C(CNC(=O)c1cccnc1)N/N=C/c1ccc(O)cc1O | 31
CC(C)NCC(=O)Nc1c2c(nc3ccccc13)CCC2 | 22
O=C1CCCCC/C1=N/Nc1ccc(OCc2ccccc2)cc1 | 23
Cc1cc(N2CCCC2)ccc1NC(=O)CN1C(=O)NC2(CCCCC2)C1=O | 20
O=S1(=O)N=C(Nc2ccc(O)cc2)c2ccccc21 | 21
CCOc1ccc(CN2CCN(S(=O)(=O)c3ccc(NC(C)=O)cc3)CC2)cc1 | -1
COc1cc(/C=N/NC(=O)/C(=C/c2ccccc2)CCO)ccc1O | 27
Cc1ccc(-n2[nH]c(=O)c3cccnc32)cc1 | 16
CS(=O)(=O)N1CCN(C2C3CC4CC(C3)CC2C4)CC1 (stereo not drawn) | 38
O=S(=O)(O)c1ccc(O)c2cc(Nc3ccccc3)ccc12 | 20
O=C(O)c1ccccc1NS(=O)(=O)c1ccc(N/N=C/c2ccc(O)c(O)c2)c([N+](=O)[O-])c1 | 14
Cc1ccc(NC(=O)CN(C)C2CCCCC2)cc1Br | 26
Oc1ccc(CCc2ccccn2)cc1 | 8
COc1cc(/C=N\NC(=O)CNC(=O)c2cccc([N+](=O)[O-])c2)ccc1O | 21
COc1cc(/C=N/Nc2nc3ccccc3s2)ccc1O | 32
COc1cc(/C=N/NS(=O)(=O)c2ccc(C)c([N+](=O)[O-])c2)ccc1O | 19
Cc1ccc(Nc2n[nH]c(=S)s2)cc1F | 33
CN1CCN(CCOCCOc2ccc(Br)cc2Cl)CC1 | 24
CCN1CCCC1CNCC(=O)Nc1ccc(OC(F)(F)F)cc1 (stereo not drawn) | 28
O=c1c2ccccc2sn1-c1ccccc1F | 76
COc1cc2[nH]c(=S)nc(NCCc3ccc(S(N)(=O)=O)cc3)c2cc1OC | 18
O=C1C(=Cc2cccc(O)c2O)SC(=S)N1CCCN1CCOCC1 | 1
Oc1ccc(/C=N/n2cc(-c3ccccc3)[nH]c2=S)cc1 | 17
O=S(=O)(c1ccc2ccccc2c1)N1CCN(C2CCN(Cc3ccccc3)CC2)CC1 | 13
CC(=O)NN1C(=O)/C(=C\c2ccc(O)cc2)SC1=S | 26
COC(=O)c1ccc(NC(=S)Nc2ccc(O)cc2)cc1 | 35
COc1cc(/C=C/C(=O)OCC(=O)NC2CCS(=O)(=O)C2)ccc1O (stereo not drawn) | 14
Nc1ccc2c(c1Br)Cc1ccccc1-2 | 15
CCCCNc1cc(NC(C)=O)cc2cc(OC)c(OC)cc12 | 2
CN1C(=O)/C(=C/C=C2/CCCN2C)N(C)C1=S | 34
CCN1C(=O)c2ccc(C(=O)Nc3ccc(O)cc3C)cc2C1=O | 18
O=c1ccc2c(-c3ccccc3S(=O)(=O)O)c3ccc(O)c(O)c3oc-2c1O | 58
N#C/C(=C\c1ccc(N2CCOCC2)o1)c1nc2ccccc2[nH]1 | 28
CCC(=O)c1ccccc1OCCN1CCN(CC)CC1 | 17
Oc1ccc(Cc2ccccc2Cl)c(O)c1 | 24
O=C1C(Nc2ccc(O)cc2)=C/C(=N/S(=O)(=O)c2cccs2)c2ccccc21 | 21
